Source: PubChem BioAssay
PINK1 modulator: A Quantitative High throughput Screen to Identify Chemical Modulators of PINK1 Expression; Potency, µM (doses to about 76.6 µM), for the others: at the top dose activation (PINK1 increase), most hits filed as activators; AID 624263, 2012; PINK1 immunofluorescence, high-content cytometry, 24 h; 410,000 compounds, 0.2% hits; active = well fitted activation curve with a large enough effect; inconclusive = small, poorly fitted or top-dose-only effect; inactive = flat fitted curve, though single readings scatter; cell line not stated here;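 also: potency is read from the fitted curve at half-maximal effect; % of control where 0% means no effect; nearly all actives have a fitted effect of over 65% in size; a mitochondrial uncoupler was the plate control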
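PINK1 protein level read as immunofluorescence by microplate cytometer in a fixed, stained stable cell line after 24 h exposure to five compound concentrations, with CCCP as control.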
gsp antag: qHTS for Antagonists of gsp, the Etiologic Mutation Responsible for Fibrous Dysplasia/McCune-Albright Syndrome: qHTS | 340,000 compounds, 0.4% hits | Potency, µM (series often up to 76.9 µM), for the others: at the highest dose activity change, negative = inhibition, usual class: inhibitors | AID 624288, 2012 | gsp-mutant cells, cAMP HTRF, 30 min; control for the full effect not named in the record; active = falling curve of any shape with a large fitted effect; inconclusive = falling curve, mostly with a smaller effect; inactive = flat or rising curve; cell line not stated here;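 also: intracellular cAMP measured with PDE inhibitor Ro 20-1724 present during compound exposure; potency is read from the fitted curve at half-maximal effect; % is scaled to controls: 0 for no effect and ±100 for the full control effect; nearly all actives have a fitted effect of over 65% in size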
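Cells in G418 medium, seeded 16-24 h, 37C; buffer exchange to DPBS + 1 mM CaCl2, 0.5 mM MgCl2, 0.05% BSA; cpds in DMSO + […] (300 uM stock), 30 min 37C; HTRF cAMP detection.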
D2 agonist: Beta-Arrestin HTS for Positive Allosteric Modulators of the Human D2 Dopamine Receptor: Agonists | D(2) dopamine receptor (Homo sapiens), P14416 | DiscoveRx PathHunter D2 beta-arrestin, luminescence, 90 min; 100% = 57 uM dopamine signal | activation, % (test concentration not listed) | 360,000 compounds, 0.084% hits; in the data active = activation above about 40%; inconclusive = about 15% to 40%; inactive = below about 15%; also: compound concentration not given in the record; the text of the record calls up to 30% inactive
Target sequence (P14416 whole entry, looked up): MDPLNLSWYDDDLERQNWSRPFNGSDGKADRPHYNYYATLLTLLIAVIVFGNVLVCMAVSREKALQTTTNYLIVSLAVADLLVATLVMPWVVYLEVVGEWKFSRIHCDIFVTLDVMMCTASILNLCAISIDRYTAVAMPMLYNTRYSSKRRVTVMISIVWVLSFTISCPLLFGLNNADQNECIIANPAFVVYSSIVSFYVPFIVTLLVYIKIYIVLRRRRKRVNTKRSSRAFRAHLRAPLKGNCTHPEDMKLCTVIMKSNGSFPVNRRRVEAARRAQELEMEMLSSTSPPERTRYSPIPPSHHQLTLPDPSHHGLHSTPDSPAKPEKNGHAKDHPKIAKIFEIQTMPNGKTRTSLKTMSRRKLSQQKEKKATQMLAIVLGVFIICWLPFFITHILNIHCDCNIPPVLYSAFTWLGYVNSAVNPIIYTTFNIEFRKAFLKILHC
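Agonist mode: compounds alone added to overnight-plated D2 PathHunter cells for 90 min at 37 C, with 57 uM final dopamine (EC100) defining full response. Beta-arrestin recruitment detected by chemiluminescent reagent, read after 1 h at ambient temperature.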
ClpP mod: qHTS Assay for Activators of ClpP; ATP-dependent Clp protease proteolytic subunit (Bacillus subtilis (strain 168)), P80244; purified B. subtilis ClpP, FRET peptide cleavage, 20 min; Potency, µM (doses to about 57.5 µM), for inactives: at the top dose activity change, negative = active; 340,000 compounds, 1.9% hits; AID 651965, 2013; active = well fitted falling curve with a large enough effect; inconclusive = small, poorly fitted or top-dose-only effect; inactive = no such curve, though single readings can be large or run the other way; also: potency is read from the fitted curve at half-maximal effect; the source files actives as falling curves though it sought activators and does not explain the sign; nearly all actives have a fitted effect of over 65% in size; many hits overshoot -100%
Target sequence (P80244 whole entry, looked up): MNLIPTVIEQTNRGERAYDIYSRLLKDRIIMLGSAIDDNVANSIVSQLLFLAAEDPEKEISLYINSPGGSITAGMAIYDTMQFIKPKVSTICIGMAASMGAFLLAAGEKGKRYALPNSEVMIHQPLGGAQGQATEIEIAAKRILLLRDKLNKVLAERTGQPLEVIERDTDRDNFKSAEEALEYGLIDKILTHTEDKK
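ClpP 10 microg/mL final, pH 8 Tris/KCl buffer with BSA, glycerol, Tween-20; compound pinned in; FRET-FV substrate; RT 20 min; Ex320/Em430; ΔFRET vs ADEP 5.8 microM, DMSO, no enzyme.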
gsp agonist: qHTS for Agonist of gsp, the Etiologic Mutation Responsible for Fibrous Dysplasia/McCune-Albright Syndrome: qHTS | AID 624287, 2012 | gsp mutant cells, cAMP HTRF, 30 min; control for the full effect not named in the record | 340,000 compounds, 0.13% hits | Potency, µM (top dose mostly 76.9 µM), for inactives: at the top dose activation (cAMP increase), actives largely listed as activators; active = well fitted activation curve with a large enough effect; inconclusive = small, poorly fitted or top-dose-only effect, or another doubt; inactive = no such curve, though single readings can be large or run the other way; cell line not stated here;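 also: phosphodiesterase inhibitor Ro 20-1724 added with compounds to block cAMP breakdown; potency is read from the fitted curve at half-maximal effect; nearly all actives have a fitted effect of over 60% in size; about a fifth of the inactives were tested at one dose only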
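Cells in DMEM/10% FBS with G418 were pretreated with compounds in DMSO plus […] (300 uM stock) for 30 min at 37C. cAMP was measured by HTRF (cAMP-d2 plus anti-cAMP antibody-K) after 30 min at room temperature.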
Menin MLL FP FL: qHTS Assay for Inhibitors Targeting the Menin-MLL Interaction in MLL Related Leukemias: Competition With Fluorescein Labeled MLL-derived Peptide; Fluorescence polarization, fluorescein-MLL peptide displacement from menin; FP activity change, % at 61.4 µM; 290,000 tested, under 10 active; inconclusive = falling polarisation curve, or a change in total fluorescence; inactive = total fluorescence flat and polarisation flat or rising; no compound was filed as active; the % refers to the polarisation; negative = inhibition;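 also: % of control where 0% means no effect; inhibitors lower the polarisation; unlabelled MLL peptide was the positive control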
Sfp inh: qHTS Assay for Inhibitors of Bacillus subtilis Sfp phosphopantetheinyl transferase (PPTase) | 4'-phosphopantetheinyl transferase ffp (Bacillus subtilis), Q9F4F7 | Biochemical Sfp PPTase activity, qHTS | Potency, µM, without a hit: max response, negative = inhibition, hits mostly inhibitors | 310,000 compounds, 3.5% hits | AID 1490, 2009; active = well fitted inhibition curve with a large enough effect; inconclusive = small, poorly fitted or top-dose-only effect, or another doubt; inactive = no such curve, though single readings can be large or run the other way;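 also: the enzyme is Sfp with the accession as filed and its product quenches rhodamine fluorescence; potency is read from the fitted curve at half-maximal effect; 0% = enzyme reaction without inhibitor and -100% = no enzyme wells; top concentration of the series not given in the record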
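After 15 min at room temperature with compound, 15 nM Sfp received 5 uM rhodamine-CoA plus 12.5 uM BHQ-2-ybbR (50 mM Hepes pH 7.6, 10 mM MgCl2). Rate came from the fluorescence difference over 30 min, ex 525/em 598 nm.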
Starred values were filed as active, the others as inactive; ? = inconclusive; . = not tested or not shown; & = joins results of further samples; [ ] = another dose, or the depositor's remark.

#1 O=C(CCNNC(=O)c1ccncc1)NCc1ccccc1
#2 CCCNC(C)C(=O)Nc1c(C)csc1C(=O)OC (stereo unspecified)
#3 OCCN1CCN(CCCN2c3ccccc3Sc3ccc(Cl)cc32)CC1
#4 Cc1c(NC(=O)c2cccnc2)c(=O)n(-c2ccccc2)n1C
#5 CC(C(=O)O)c1ccc(C(=O)c2cccs2)cc1 (stereo unspecified)
#6 COc1ccc(C(=O)NCc2ccc(OCCN(C)C)cc2)cc1OC
#7 CC1(C)Cc2c(sc(NC(=S)NC(=O)c3ccccc3)c2C(=O)O)CO1
#8 CCOC(=O)c1ccc(N)cc1
#9 CC(=O)NC(Cc1ccccc1)C(=O)O (stereo unspecified)
#10 Cc1cc(CC(C)CC(C)(C)C)n(O)c(=O)c1 (stereo unspecified)
entry no.	1	2	3	4	5	6	7	8	9	10
PINK1 modulator	0.2%	-1.0%	-0.5%	6.3%	2.2%	1.8%	-1.1%	-0.1%	-0.4%	1.6%
gsp antag	0%	-1%	10%	-4%	2%	3%	-12%	3%	4%	.
D2 agonist	-4.2	-0.9	0.6	-2.9	?	-8.2	1.3	-6.8	-2.6	.
ClpP mod	1.2%	1.4%	0.1%	0.5%	-0.8%	-0.9%	-1.2%	1.0%	0.4%	-0.2%
gsp agonist	.	.	.	-16%[15.4 µM]	.	.	15%	.	.	.
Menin MLL FP FL	3.3	.	-2.7	?	-0.6	1.4	-0.2	-5.3	-0.3&2.7	6.9
Sfp inh	-27%&-7%&8%	.	?	8%&6%&25%	10%	6%	-10%	9%&10%	8%&4%	23%

Some of the entries so far, as tab-separated lines:
cpd	compound	PINK1 modulator	gsp antag	D2 agonist	ClpP mod	gsp agonist	Menin MLL FP FL	Sfp inh
9	CC(=O)NC(Cc1ccccc1)C(=O)O (stereo unspecified)	-0.4%	4%	-2.6	0.4%	.	-0.3&2.7	8%&4%
10	Cc1cc(CC(C)CC(C)(C)C)n(O)c(=O)c1 (stereo unspecified)	1.6%	.	.	-0.2%	.	6.9	23%
4	Cc1c(NC(=O)c2cccnc2)c(=O)n(-c2ccccc2)n1C	6.3%	-4%	-2.9	0.5%	-16%[15.4 µM]	?	8%&6%&25%
6	COc1ccc(C(=O)NCc2ccc(OCCN(C)C)cc2)cc1OC	1.8%	3%	-8.2	-0.9%	.	1.4	6%

Next structures follow:
#11 CN1CCOC(c2ccccc2)c2ccccc2C1 (stereo unspecified)
#12 CC(=O)OCC1=C[C@@H]2OC(=O)C3=CO[C@@H](O[C@@H]4O[C@H](CO)[C@@H](O)[C@H](O)[C@H]4O)[C@H]1[C@@H]32
#13 CCOc1ccc(NC(=O)Cn2cc(C(=O)c3ccco3)c3ccccc32)cc1
#14 CN1CCN(CCC(=O)N2c3ccccc3Sc3ccc(C(F)(F)F)cc32)CC1
#15 CN1CCN(C(c2ccccc2)c2ccccc2)CC1
#16 NC(=O)c1cn(Cc2c(F)cccc2F)nn1
#17 CCCCCCO
#18 Cc1cc(-c2ccccc2)nnc1NCCN1CCOCC1
#19 OC(C#CCN1CCCC1)(c1ccccc1)c1ccccc1
#20 CC(=O)Nc1ccc(C(=O)O)cc1
entry no.	11	12	13	14	15	16	17	18	19	20
PINK1 modulator	1.3%	1.1%	-0.6%	.	0.1%	0.8%	0.0%	3.6%	1.7%	0.0%
gsp antag	-4%	12%	10%	5%	-5%	5%	-2%	-3%	15%	8%
D2 agonist	-6.9	-2.4	0.2	-1.2	-4.0	2.2	1.0	-3.9	-2.9	-2.8
ClpP mod	-0.5%	1.3%	44%&-5.5%	0.7%	-2.9%	0.0%	-1.0%	-0.8%	0.1%	1.7%
gsp agonist	.	.	?	-91%[inhibitor]	.	.	.	.	15%	.
Menin MLL FP FL	-2.4&7.7	.	-0.3	0.0&0.2	-2.7	-1.5&4.1	.	-0.8	-5.0	-3.6
Sfp inh	17%&6%	.	?	7%&-1%	-6%&10%	9%&3%	.	11%&-4%&13%	7%&1%	1%

#21 C=CC1=C(C(=O)O)N2C(=O)[C@@H](NC(=O)/C(=N\O)c3csc(N)n3)[C@H]2SC1 (stereo in doubt)
#22 O=C(CCN1CCC(c2ccccc2)C1)c1ccc2c(c1)OCCO2 (stereo unspecified)
#23 CC12CCC(CC1)C(C)(C)O2
#24 COC(=O)c1ccc(O)cc1
#25 CC(=O)c1ccc2c(c1)N(CCCN(C)C)c1ccccc1S2
#26 COc1cc2c(c(OC)c1OC)-c1c(cc3c(c1OC)OCO3)[C@@H](OC(C)=O)[C@H](C)[C@H](C)C2
#27 O=C(NCCc1c[nH]c2ccccc12)c1cccnc1
#28 COc1ccc(C(=O)CC(=O)c2ccc(C(C)(C)C)cc2)cc1
#29 C1CCC(C(CC2CCCCN2)C2CCCCC2)CC1 (stereo unspecified)
#30 Cn1c(=O)c2c(ncn2CC2OCCO2)n(C)c1=O
entry no.	21	22	23	24	25	26	27	28	29	30
PINK1 modulator	0.8%	0.8%	1.3%&-1.5%	-0.2%	0.1%	1.4%	-0.7%	20%	-0.6%&-0.4%	0.5%
gsp antag	9%	12%	17%	6%	-10%	-15%	2%	1%	-6%&1%	1%
D2 agonist	-4.8	-6.9	-4.3	-0.5	-1.0	-1.0	-0.9	-4.3	-15&-15	-3.5
ClpP mod	0.0%	-19%	0.0%	1.4%	0.3%	0.1%	0.0%	-20%	-1.3%&2.6%	1.1%
gsp agonist	.	.	.	-9%[15.4 µM]	.	.	.	.	.	-1%
Menin MLL FP FL	.	-1.5&-1.0	-0.7&2.5	2.1&2.3	-5.5[24.8 µM]	-1.1	-2.3&6.3	2.6	5.0&1.9	0.0&-0.8
Sfp inh	.	50µM*	21%&4%	21%&11%	22%	10%	-2%&-10%	14%	5%&-30%	8%&26%

#31 Cc1nc2ccccn2c(=O)c1CCN1CCC(C(=O)c2ccc(F)cc2)CC1
#32 O=c1cc(-c2ccc(O)cc2)oc2cc(OC3OC(CO)C(O)C(O)[C@H]3O[C@@H]3OC[C@@](O)(CO)C3O)cc(O)c12 (stereo partly specified)
#33 CCOc1ccccc1C(N)=O
#34 NC(=O)c1cccc(-c2cc(Nc3ccc(OC(F)(F)F)cc3)ncn2)c1
#35 O=S(=O)(c1cccc2cnccc12)N1CCCNCC1
#36 c1ccc(CC2=NCCN2)cc1
#37 COC(=O)C1=CO[C@@H](O[C@H]2OC(CO)C(O)C(O)C2O)C2C1CC(O)C2C (stereo partly specified)
#38 CCN(CC)CCOC(=O)C1(c2ccccc2)CCCC1
#39 c1ccc(CN(CC2=NCCN2)c2ccccc2)cc1
#40 COc1ccccc1N1CCN(CCCNc2cc(=O)n(C)c(=O)n2C)CC1
entry no.	31	32	33	34	35	36	37	38	39	40
PINK1 modulator	1.0%	0.6%	1.1%	3.7%	-0.6%&-0.7%	-0.5%	1.1%	22%[38.3 µM]	0.0%&1.3%	2.6%
gsp antag	-15%	.	1%	4%	5%	2%	.	6%	4%&5%	.
D2 agonist	-6.8	.	-3.6	1.7	-1.9	-3.4	.	-0.7	-6.2&-4.6	-0.8
ClpP mod	-25%	.	-5.9%	?	0.6%&-1.4%	-0.6%	.	0.3%	-1.5%&1.5%	-0.4%
gsp agonist	.	.	.	.	.	.	.	-2%	.	1%
Menin MLL FP FL	-1.5&1.4&-0.6	5.6	-0.3	4.7	?	-0.3	4.6	2.1&-1.7	-0.3	3.9
Sfp inh	8%&37%	-6%	1%	5%	-6%&-16%&4%&6%	9%&13%&18%	10%	13%&-1%	4%&-12%&9%&-10%&16%	10%&-17%&0%&20%&3%&9%

#41 CC(COc1ccccc1)NC(C)C(O)c1ccc(O)cc1 (stereo unspecified)
#42 O=C(c1ccc(F)cc1)C1CCN(CCn2c(=O)[nH]c3ccccc3c2=O)CC1
#43 CCOc1ccc(C(=O)OCCN(CC)CC)cc1
#44 Oc1ccc(/C=C/c2cc(O)cc(O)c2)cc1
#45 CC[N+](C)(CC)CCOC(=O)C(O)(c1ccccc1)C1CCCCC1 (stereo unspecified)
#46 CCC(C)n1ncn(-c2ccc(N3CCN(c4ccc(OCC5COC(Cn6cncn6)(c6ccc(Cl)cc6Cl)O5)cc4)CC3)cc2)c1=O (stereo unspecified)
#47 CCCCCCCCCCCCCCC[C@H](O)[C@H](N)CO
#48 CCCn1cnc2c1c(=O)n(CCCCC(C)=O)c(=O)n2C
entry no.	41	42	43	44	45	46	47	48
PINK1 modulator	1.0%	-0.3%&0.5%&1.3%	-0.9%	-0.9%	1.6%	1.4%	-0.6%	2.0%
gsp antag	-1%	-10%&-9%	5%	-6%	3%	7%	.	.
D2 agonist	13	-5.4&-9.5	0.9	-3.0	-3.3	1.9	.	.
ClpP mod	0.1%	-10%&-7.5%	1.1%	?	2.2%	-2.2%	0.6%	.
gsp agonist	.	.	?	.	.	.	.	.
Menin MLL FP FL	-2.8&-3.4	0.4	-3.3&1.0	3.5&-4.6&-0.5&3.0	-0.6	-1.3&-6.0&-2.4	-0.2	4.9&-1.1
Sfp inh	8%&8%	-1%&6%&2%&-1%&15%	13%&-3%	6%&-6%&-23%&-23%	11%	3%&16%&1%	71µM*	24%

This is a subset; rates above refer to the full screens.
